rRNA inh HTS = selective bacterial rRNA inhibition in E. coli; E. coli WT GFP vs humanized-ribosome RFP mutants, fluorescence, 24 h; active compounds read low; DMSO median 0, no signal -100; GFP signal change (wild-type ribosome), % (concentration not given with the values); actives 1.6% (n = 350,000); AID 720706;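 active = significant combined selectivity score with lowered wild-type GFP, culture density cut under 30%, mutant RFP and density less affected; inactive = any of these conditions unmet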; also: one replicate is shown; some compounds called inactive have numbers as strong as hits
MLL AF4-AF9 inh = blocks AF4 peptide binding to human AF9; P42568; AlphaScreen, biotin-AF4 peptide binding to FLAG-AF9; inhibition, % at 10 µM; actives 0.47% (n = 350,000); AID 651704;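 active = every replicate reaching a set inhibition limit, whatever the replicate mean, cut at about 25% in these data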;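 also: 0% = plate neutral control median and 100% = total signal loss; the record names both 10 and 1 µM as test concentration; the first replicate is given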
Target sequence (P42568 whole entry, looked up): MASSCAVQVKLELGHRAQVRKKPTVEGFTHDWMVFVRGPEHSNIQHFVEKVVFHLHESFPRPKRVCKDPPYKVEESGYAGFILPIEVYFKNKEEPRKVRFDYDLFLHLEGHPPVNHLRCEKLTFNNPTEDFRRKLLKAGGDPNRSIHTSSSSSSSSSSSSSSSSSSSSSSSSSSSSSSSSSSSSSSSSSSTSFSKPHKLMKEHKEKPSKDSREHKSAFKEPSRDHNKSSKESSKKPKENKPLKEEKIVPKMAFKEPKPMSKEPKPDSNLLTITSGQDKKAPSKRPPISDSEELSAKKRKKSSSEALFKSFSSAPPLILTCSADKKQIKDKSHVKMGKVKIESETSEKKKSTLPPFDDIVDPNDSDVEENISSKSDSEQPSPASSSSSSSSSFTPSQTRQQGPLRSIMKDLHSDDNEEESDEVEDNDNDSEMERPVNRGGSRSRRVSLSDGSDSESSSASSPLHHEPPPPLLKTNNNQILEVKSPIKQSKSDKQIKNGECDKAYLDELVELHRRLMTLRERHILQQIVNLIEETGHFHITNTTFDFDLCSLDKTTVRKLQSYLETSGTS
FGF22 binding = binders of recombinant human FGF22 by thermal shift | SYPRO orange fluorescence; percent of sucrose octasulfate shift, DMSO zero | calls only at 9.99 µM | actives 1.5% (n = 340,000) | Q9HCT0 | AID 651658;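 active = melting point raised past a set limit in the mean and every replicate; three in four hits are not shown here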
Target sequence (Q9HCT0 whole entry, looked up): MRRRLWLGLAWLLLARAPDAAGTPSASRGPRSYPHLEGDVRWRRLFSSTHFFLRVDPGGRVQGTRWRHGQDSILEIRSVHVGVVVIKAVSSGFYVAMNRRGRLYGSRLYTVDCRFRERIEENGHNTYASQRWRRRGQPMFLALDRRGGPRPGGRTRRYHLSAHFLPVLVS
rRNA inh HTS OD600 = recorded beside rRNA inh HTS, whose call it bears; OD600 change, %; measured here: OD600 growth;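 optical density of the mix in the first replicate; 0 = DMSO median and -100 = no signal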
rRNA inh HTS RFP = further read-out of rRNA inh HTS, marked with its call; RFP signal change, %; measured here: RFP humanized mutant strains;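 first replicate; 0 = DMSO median and -100 = no signal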
An asterisk follows results filed as active; i = inactive. The list is partial, so the mix of outcomes need not match the whole.

The first seven records, to show the layout:
SMILES	rRNA inh HTS	rRNA inh HTS OD600	rRNA inh HTS RFP	MLL AF4-AF9 inh	FGF22 binding
C[C@@H]1CCCCO[C@@H](CN(C)CC2CC2)[C@H](C)CN([C@H](C)CO)C(=O)c2cc(NC(=O)CCCN(C)C)ccc2O1	6	-1	-1.2	13	i
COc1ccccc1-c1cccc(-c2nc(C(=O)N3CCCCC3)cc3c2[C@H](CCO)N([S@@](=O)C(C)(C)C)C3)c1	0	-1	29	3.5	i
O=C1C=CC2C3C(=O)N(c4ccccc4)C(=O)C3C1N2Cc1ccccc1 (centres undefined)	-70	-77	-26	0.5	i
O=C(NCc1ccc(F)cc1)[C@@H]1[C@@H](CO)[C@@H]2Cn3c(cccc3=O)[C@H]1N2C(=O)c1cnccn1	2	11	-1.4	-1.1	i
C[C@H](CO)N1C[C@H](C)[C@@H](CN(C)C(=O)C2CCOCC2)Oc2ncc(C#CC3(O)CCCC3)cc2C1=O	-3	-8	-0.1	-12	i
COC(=O)[C@]12C[C@H](CC(=O)N3CCC(c4ccccc4)CC3)C(=O)N(Cc3ccccc3)C1=C[C@H](C(C)(C)C)O[C@@H]2C	5	4	3.8	2.9	i
C[C@@H]1CN([C@H](C)CO)C(=O)c2cc(NC(=O)NC3CCCCC3)ccc2O[C@@H](C)CCCCO[C@H]1CN(C)C(=O)C1CCCCC1	-5	-7	-1.3	3.6	i

The whole of this part, repeating the preview:
SMILES	rRNA inh HTS	rRNA inh HTS OD600	rRNA inh HTS RFP	MLL AF4-AF9 inh	FGF22 binding
C[C@@H]1CCCCO[C@@H](CN(C)CC2CC2)[C@H](C)CN([C@H](C)CO)C(=O)c2cc(NC(=O)CCCN(C)C)ccc2O1	6	-1	-1.2	13	i
COc1ccccc1-c1cccc(-c2nc(C(=O)N3CCCCC3)cc3c2[C@H](CCO)N([S@@](=O)C(C)(C)C)C3)c1	0	-1	29	3.5	i
O=C1C=CC2C3C(=O)N(c4ccccc4)C(=O)C3C1N2Cc1ccccc1 (centres undefined)	-70	-77	-26	0.5	i
O=C(NCc1ccc(F)cc1)[C@@H]1[C@@H](CO)[C@@H]2Cn3c(cccc3=O)[C@H]1N2C(=O)c1cnccn1	2	11	-1.4	-1.1	i
C[C@H](CO)N1C[C@H](C)[C@@H](CN(C)C(=O)C2CCOCC2)Oc2ncc(C#CC3(O)CCCC3)cc2C1=O	-3	-8	-0.1	-12	i
COC(=O)[C@]12C[C@H](CC(=O)N3CCC(c4ccccc4)CC3)C(=O)N(Cc3ccccc3)C1=C[C@H](C(C)(C)C)O[C@@H]2C	5	4	3.8	2.9	i
C[C@@H]1CN([C@H](C)CO)C(=O)c2cc(NC(=O)NC3CCCCC3)ccc2O[C@@H](C)CCCCO[C@H]1CN(C)C(=O)C1CCCCC1	-5	-7	-1.3	3.6	i
C[C@H](CO)N1C[C@H](C)[C@@H](CN(C)C(=O)Nc2ccc(C(F)(F)F)cc2)Oc2c(NC(=O)c3ccc(-c4nccs4)cc3)cccc2C1=O	-3	-3	0.2	2.7	i
COc1ccc(S(=O)(=O)N2CCCc3nc(-c4ccc(Br)cc4)ccc32)cc1	12	19	2.6	1.1	i
COc1ccccc1NC(=O)N[C@H]1CC[C@@H](CC(=O)N[C@@H](C)c2ccccc2)O[C@@H]1CO	-2	0	-0.6	-4.7	i
C[C@@H]1CN([C@@H](C)CO)C(=O)CCCn2nncc2CO[C@@H]1CN(C)Cc1ccc2c(c1)OCCN2C	-1	1	0.5	-21	i
C[C@@H]1CN([C@@H](C)CO)C(=O)c2cc(NC(=O)Nc3ccc(C(F)(F)F)cc3)ccc2O[C@@H]1CN(C)Cc1ccc(C(F)(F)F)cc1	2	8	-0.1	-1.5	i
CNC[C@@H]1OCCCC[C@@H](C)Oc2ccc(NS(=O)(=O)c3cccs3)cc2C(=O)N([C@H](C)CO)C[C@H]1C	2	5	-3.7	-29	i
CNC[C@H]1OCCCC[C@@H](C)Oc2ccc(NC(=O)Nc3c(C)noc3C)cc2C(=O)N([C@H](C)CO)C[C@H]1C	6	2	-1.2	-2.8	i
C[C@@H]1CCCCO[C@@H](CN(C)C(=O)Nc2cccc3ccccc23)[C@@H](C)CN([C@H](C)CO)C(=O)c2cc(NC(=O)Nc3ccc(C(F)(F)F)cc3)ccc2O1	0	14	-2.2	-2.0	i
Cc1cccc(NC(=O)Nc2ccc3c(c2)C(=O)N(C)[C@@H]2CC[C@@H](CC(=O)O)O[C@H]2CO3)c1	5	2	-3.0	0.7	i
CCCC(=O)Nc1ccc2c(c1)OC[C@H](C)N(Cc1ccncc1)C[C@@H](C)[C@@H](OC)CN(C)C2=O	-5	-4	-3.0	-1.8	i
COCC(=O)N(C)C[C@H]1Oc2ncc(-c3ccccc3F)cc2C(=O)N([C@@H](C)CO)C[C@H]1C	3	6	1.9	-2.6	i
C[C@@H]1CN([C@@H](C)CO)C(=O)c2cc(N(C)C)ccc2O[C@@H](C)CCCCO[C@H]1CN(C)Cc1ccc2c(c1)OCO2	-3	2	0.3	6.3	i
CCN(c1ccccc1)S(=O)(=O)c1ccc(Cl)c(C(=O)Nc2ccncc2)c1	-43	-71	-13	-3.0	i
COCC(=O)Nc1ccc2c(c1)OC[C@@H](C)N(CCc1ccccc1)C[C@H](C)[C@H](OC)CN(C)C2=O	0	-2	-1.0	1.7	i
O=C1CCCc2cnnn2COC[C@H](Cc2ccccc2)N1	1	-1	-2.5	-8.3	i
CC=Cc1ccc2n(c1=O)C[C@H]1[C@H](CO)[C@@H](C(=O)NCCC)[C@@H]2N1Cc1cccnc1 (mixture of isomers)	6	10	-0.5	1.2	i
CN(C)CC#Cc1ccc([C@H]2[C@H]3CN(C(=O)Nc4cc(F)ccc4F)CCCCN3[C@H]2CO)cc1	2	7	1.9	4.9	i
CN(C)C(=O)C[C@@H]1C[C@@H]2c3cc(NC(=O)Nc4ccc(F)cc4)ccc3O[C@@H]2[C@H](CO)O1	1	7	-1.4	-0.2	i
CN(C)C(=O)c1cccc(-c2ccc3c(c2)[C@@H]2[C@@H](CCN2C(=O)Cc2ccccc2)[C@@H](CO)N3)c1	-4	-14	-3.4	-2.7	i
OC[C@H]1[C@@H](c2ccc(-c3cccnc3)cc2)[C@@H]2CN(CC3CC3)CCCCN12	4	2	1.0	1.7	i
COc1ccc(-c2cnc3c(c2)C(=O)N([C@H](C)CO)C[C@@H](C)[C@H](CN(C)C(=O)Cc2ccncc2)O3)cc1	-2	2	-0.5	2.0	i
CCCc1cn(CC[C@@H]2CC[C@H](NC(=O)C3CCOCC3)[C@H](CO)O2)nn1	1	9	-0.5	3.4	i
CCCC#Cc1ccc2c(c1)O[C@@H](CN(C)C(=O)Nc1ccccc1F)[C@@H](C)CN([C@@H](C)CO)S2(=O)=O	-4	-7	-0.3	7.9	i
COc1ccc(S(=O)(=O)N(C)C[C@@H]2Oc3ccc(NC(=O)Nc4ccccc4)cc3C(=O)N([C@H](C)CO)C[C@H]2C)cc1	-10	-14	4.2	0.1	i
COc1ccc(S(=O)(=O)Nc2ccc3c(c2)CC(=O)N([C@@H](C)CO)C[C@@H](C)[C@@H](CN(C)S(=O)(=O)c2ccc(OC)cc2)O3)cc1	-1	-12	5.0	3.1	i
COc1ccccc1S(=O)(=O)N[C@@H]1CC[C@@H](CC(=O)NCc2cccc(F)c2)O[C@@H]1CO	1	-3	0.0	0.5	i
COc1ccc(OCCOC(=O)CNC(=O)c2ccc(F)cc2)cc1	3	4	-0.7	-1.5	i
C[C@H](CO)N1C[C@H](C)[C@@H](CN(C)Cc2ccncc2)Oc2ccc(NC(=O)NC3CCCCC3)cc2C1=O	0	-2	-0.4	0.2	i
Cc1cn([C@H]2C[C@H](O)[C@@H](/C=C/C(=O)NCC(c3ccccc3)c3ccccc3)O2)c(=O)[nH]c1=O	3	5	3.0	-2.6	i
CN(c1ccc(C(=O)NCC2CCCO2)cc1)S(=O)(=O)c1ccc(Cl)cc1 (centres undefined)	1	-9	-1.1	-1.2	i
C[C@H](NC(=O)C[C@H]1CC[C@@H](NC(=O)CN2CCOCC2)[C@@H](CO)O1)c1ccccc1	1	6	-0.2	-2.0	i
CCCNC(=O)N(C)C[C@@H]1Oc2ncc(-c3ccccc3)cc2C(=O)N([C@H](C)CO)C[C@H]1C	-4	9	-0.1	-0.2	i
C[C@H]1CN([C@@H](C)CO)C(=O)c2cc(-c3ccccc3)cnc2O[C@@H]1CN(C)C(=O)Cc1ccccc1	-6	-4	0.0	-3.5	i
CC(=O)Nc1ccc(-c2ccnc3c2CC(C)(C(=O)NCC2CCOCC2)O3)cc1 (centres undefined)	-1	4	-2.6	2.4	i
COc1cccc(Nc2nc(C(N)Cc3ccc(Cl)cc3)cs2)n1 (centres undefined)	-60	-80	-24	9.2	i
COc1ccc(CN2[C@@H](CO)[C@@H]3c4ccccc4NC[C@@H]32)cc1	0	-9	-0.6	1.7	i
CCCC#Cc1cnc2c(c1)C(=O)N([C@@H](C)CO)C[C@@H](C)[C@@H](CN(C)C(=O)C1CC1)O2	5	18	-1.4	1.7	i
O=S1(=O)c2ccc(Br)cc2N2CCC[C@@H]2CN1C1CC1	0	-30	-9.1	-3.7	i
CNC[C@H]1Oc2ccc(NS(C)(=O)=O)cc2C(=O)N([C@H](C)CO)C[C@@H]1C	-6	1	-4.1	2.2	i
CCC(=O)N[C@H]1CC[C@H](CC(=O)NCCN2CCCCC2)O[C@H]1CO	0	13	-0.6	-1.5	i
C[C@@H]1CN([C@H](C)CO)C(=O)c2cccc(NS(=O)(=O)c3cccs3)c2O[C@H]1CN(C)Cc1ccc(Oc2ccccc2)cc1	-2	4	2.5	5.8	i

Quoted at random: 2 records from the list
SMILES	rRNA inh HTS	rRNA inh HTS OD600	rRNA inh HTS RFP	MLL AF4-AF9 inh	FGF22 binding
CC(=O)Nc1ccc(-c2ccnc3c2CC(C)(C(=O)NCC2CCOCC2)O3)cc1 (centres undefined)	-1	4	-2.6	2.4	i
CCC(=O)N[C@H]1CC[C@H](CC(=O)NCCN2CCCCC2)O[C@H]1CO	0	13	-0.6	-1.5	i

(listing goes on)
SMILES	rRNA inh HTS	rRNA inh HTS OD600	rRNA inh HTS RFP	MLL AF4-AF9 inh	FGF22 binding
CC(=O)Nc1ccc2c(c1)C(=O)N(C)[C@H]1CC[C@H](CC(=O)NCc3ccccc3)O[C@H]1CO2	3	4	-0.2	3.0	i
C[C@H](CO)N1C[C@H](C)[C@@H](CN(C)Cc2ccc(Cl)c(Cl)c2)OCCCC[C@H](C)Oc2ccc(NC(=O)Nc3cccc4ccccc34)cc2C1=O	-2	3	0.1	-3.0	i
CCc1nc2c(OCc3ccc(Cl)cc3)cccn2c1N(C)C(=O)c1ccncc1	3	10	-2.6	2.0	i
CC(C)c1ccc(CC(=O)N2CCC2(C)C(=O)NS(=O)(=O)c2ccc(C(C)(C)C)cc2)cc1 (centres undefined)	-6	-4	-5.0	4.8	i
CN(C)C(=O)c1cccc(-c2ccc([C@@H]3[C@@H](C#N)N(C(=O)C4CC4)[C@H]3CO)cc2)c1	2	4	1.5	-2.3	i
CO[C@H]1CN(C)C(=O)c2ccc(NS(=O)(=O)c3ccc(Cl)cc3)cc2OC[C@@H](C)N(C(=O)NC(C)C)C[C@@H]1C	-4	-9	0.5	-0.8	i
CC(C)C#Cc1cnc2c(c1)C(=O)N([C@H](C)CO)C[C@@H](C)[C@H](CN(C)C(=O)CN1CCOCC1)O2	3	4	-2.9	-3.5	i
Cc1ccc(S(=O)(=O)N(C)C[C@@H]2OCCCC[C@@H](C)Oc3ccc(NS(=O)(=O)c4cn(C)cn4)cc3C(=O)N([C@H](C)CO)C[C@H]2C)cc1	0	-3	1.5	1.0	i
Clc1cccc(Cc2c(-c3cccc(Cl)c3)nc3ccc(Cl)cn23)c1	-24	-22	16	1.1	i
CC(C)CC#Cc1ccc2c(c1)O[C@@H](CN(C)C(=O)Cc1ccccc1)[C@H](C)CN([C@H](C)CO)S2(=O)=O	-7	-17	5.0	0.3	i
COCC#Cc1ccc2c(c1)O[C@@H](CN(C)C(=O)NC(C)C)[C@H](C)CN([C@H](C)CO)S2(=O)=O	1	-7	-1.9	-0.6	i
C[C@H](CO)N1C[C@H](C)[C@H](CN(C)S(=O)(=O)c2ccccc2)Oc2ccc(NC(=O)Nc3ccc4c(c3)OCO4)cc2C1=O	-3	-11	1.1	11	i
CCCCCC(=O)N1C[C@@H](O)[C@H](n2cc(-c3ccc(F)cc3)nn2)C[C@@H]1c1ccccc1	-13	-36	0.8	-0.1	i
CC=Cc1ccc2n(c1=O)C[C@@H]1[C@@H](CO)[C@H](C(=O)NCC3CC3)N(Cc3nccs3)[C@H]21 (mixture of isomers)	4	6	-0.1	-3.3	i
CS(=O)(=O)N1[C@H](C(=O)NCCc2ccncc2)[C@@H](CO)[C@@H]2Cn3c(ccc(C4=CCCC4)c3=O)[C@@H]21	5	10	0.4	-2.3	i
COc1ccc(S(=O)(=O)N2CCCC(C(=O)N3CCN(Cc4ccccc4)CC3)C2)cc1Cl (centres undefined)	-5	-39	-1.0	-0.5	i
O=C(Nc1ccc2c(c1)OCO2)N[C@H]1CC[C@H](CCNC(=O)C2CCCC2)O[C@@H]1CO	1	7	-1.1	2.7	i
CC1(C(=O)NS(=O)(=O)c2cccc(Cl)c2)CCN1C(=O)Cc1cc(F)ccc1F (centres undefined)	1	8	-5.7	-7.3	i
C[C@H](CO)N1C[C@H](C)[C@H](CN(C)C(=O)Nc2cccc(F)c2)OCc2ccccc2-c2c(n(C)c3ccccc23)C1=O	1	2	4.1	-0.3	i
